gsp agonist: qHTS for Agonist of gsp, the Etiologic Mutation Responsible for Fibrous Dysplasia/McCune-Albright Syndrome: qHTS; gsp mutant cells, cAMP HTRF, 30 min; control for the full effect not named in the record; Potency, µM (highest dose often 76.9 µM), inactives show at the top dose activation (cAMP increase), actives largely listed as activators; actives 0.13% (n = 340,000); AID 624287, 2012; active = well fitted activation curve with a large enough effect; inconclusive = small, poorly fitted or top-dose-only effect, or another doubt; inactive = no such curve, though single readings can be large or run the other way; cell line not stated here;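 note: phosphodiesterase inhibitor Ro 20-1724 added with compounds to block cAMP breakdown; potency is the fitted concentration of half-maximal effect; nearly all actives have a fitted effect of over 60% in size; about a fifth of the inactives were tested at one dose only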
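Cells stably selected in G418 were plated at 2000/well, grown 16-24 hr, then given compounds in DMSO with the PDE inhibitor […] (300 uM solution added) for 30 min at 37C; cAMP was read by HTRF.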
gsp antagonist: qHTS for Antagonists of gsp, the Etiologic Mutation Responsible for Fibrous Dysplasia/McCune-Albright Syndrome: qHTS | gsp-mutant cells, cAMP HTRF, 30 min; control for the full effect not named in the record | Potency, µM (doses to about 76.9 µM), without a hit: at the highest dose activity change, negative = inhibition, usual class: inhibitors | actives 0.4% (n = 340,000) | AID 624288, 2012; active = falling curve of any shape with a large fitted effect; inconclusive = falling curve, mostly with a smaller effect; inactive = flat or rising curve; cell line not stated here;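 note: intracellular cAMP measured with PDE inhibitor Ro 20-1724 present during compound exposure; potency is the fitted concentration of half-maximal effect; % is set by controls: 0 for no effect and ±100 for the full control effect; nearly all actives have a fitted effect of over 65% in size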
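HTRF cAMP read-out (cAMP-d2 plus anti-cAMP antibody-K in lysis buffer, 30 min RT). Before lysis, cells are exposed to compounds with […] for 30 min at 37C in DPBS containing Ca/Mg, BSA and Tween 20.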
Sfp inh: qHTS Assay for Inhibitors of Bacillus subtilis Sfp phosphopantetheinyl transferase (PPTase) | 4'-phosphopantetheinyl transferase ffp (Bacillus subtilis), Q9F4F7 | Biochemical Sfp PPTase activity, qHTS | Potency, µM, for inactives: max response, negative = inhibition, usual class: inhibitors | actives 3.5% (n = 310,000); active = well fitted inhibition curve with a large enough effect; inconclusive = small, poorly fitted or top-dose-only effect, or another doubt; inactive = no such curve, though single readings can be large or run the other way;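 note: the enzyme is Sfp with the accession as filed and its product quenches rhodamine fluorescence; potency is the fitted concentration of half-maximal effect; 0% = enzyme reaction without inhibitor and -100% = no enzyme wells; top concentration of the series not given in the record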
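After 15 min at room temperature with compound, 15 nM Sfp received 5 uM rhodamine-CoA plus 12.5 uM BHQ-2-ybbR (50 mM Hepes pH 7.6, 10 mM MgCl2). Rate came from the fluorescence difference over 30 min, ex 525/em 598 nm.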
ClpP mod: qHTS Assay for Activators of ClpP | ATP-dependent Clp protease proteolytic subunit (Bacillus subtilis (strain 168)), P80244 | purified B. subtilis ClpP, FRET peptide cleavage, 20 min | Potency, µM (titrated, usually from 57.5 µM), inactives show at the top dose activity change, negative = active | actives 1.9% (n = 340,000) | AID 651965, 2013; active = well fitted falling curve with a large enough effect; inconclusive = small, poorly fitted or top-dose-only effect; inactive = no such curve, though single readings can be large or run the other way; note: potency is the fitted concentration of half-maximal effect; the source files actives as falling curves though it sought activators and does not explain the sign; nearly all actives have a fitted effect of over 65% in size; many hits overshoot -100%
Target sequence (P80244 whole entry, looked up): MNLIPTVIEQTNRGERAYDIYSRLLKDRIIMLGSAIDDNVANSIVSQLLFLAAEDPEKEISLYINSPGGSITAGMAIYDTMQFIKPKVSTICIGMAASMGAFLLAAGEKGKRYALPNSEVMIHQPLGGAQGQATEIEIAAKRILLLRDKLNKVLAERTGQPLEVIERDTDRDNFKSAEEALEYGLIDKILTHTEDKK
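Purified B. subtilis ClpP, 10 microg/mL final in Tris/HCl pH8 with KCl, BSA, glycerol and Tween-20, cleaved an Abz/nitrotyrosine-quenched decapeptide. Fluorescence (ex 320, em 430) was read at 0 and 20 min at room temperature. Delta was normalized to 5.8 microM ADEP and DMSO/no-enzyme controls.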
D2 PAM: Beta-Arrestin HTS for Positive Allosteric Modulators of the Human D2 Dopamine Receptor: Potentiators; AID 624464, 2012; actives 0.23% (n = 360,000); potentiation, % (concentration not given with the values); D(2) dopamine receptor (Homo sapiens), P14416; DiscoveRx D2 beta-arrestin cells, luminescence, 90 min; 100% = 57 uM dopamine signal; active = potentiation of 50% or more; inconclusive = 30% to 50%; inactive = 30% or less;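 note: compound concentration not given in the record; tested on top of an EC20 dose of dopamine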
Target sequence (P14416 whole entry, looked up): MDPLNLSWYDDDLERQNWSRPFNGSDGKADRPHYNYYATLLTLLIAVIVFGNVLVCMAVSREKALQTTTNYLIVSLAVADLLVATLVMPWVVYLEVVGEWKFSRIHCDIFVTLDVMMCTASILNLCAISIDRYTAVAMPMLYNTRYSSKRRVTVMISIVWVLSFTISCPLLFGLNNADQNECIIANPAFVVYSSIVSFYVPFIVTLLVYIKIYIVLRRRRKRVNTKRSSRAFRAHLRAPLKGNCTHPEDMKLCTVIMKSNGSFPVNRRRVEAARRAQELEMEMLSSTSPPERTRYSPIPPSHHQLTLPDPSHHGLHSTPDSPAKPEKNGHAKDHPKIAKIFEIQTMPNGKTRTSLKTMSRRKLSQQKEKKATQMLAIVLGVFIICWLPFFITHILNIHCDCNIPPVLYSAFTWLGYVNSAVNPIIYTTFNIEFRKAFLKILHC
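D2 cells co-treated with compound plus 50 nM dopamine (EC20) for 90 min at 37 deg C to detect potentiation. Beta-arrestin recruitment was read as enzyme-fragment luminescence after 1 h at ambient temperature. Full response was set by 57 uM dopamine.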
Menin-MLL FL inh: qHTS Assay for Inhibitors Targeting the Menin-MLL Interaction in MLL Related Leukemias: Competition With Fluorescein Labeled MLL-derived Peptide. Fluorescence polarization, fluorescein-MLL peptide displacement from menin. FP activity change, % at 61.4 µM. 290,000 tested, under 10 active. AID 1766, 2009; inconclusive = falling polarisation curve, or a change in total fluorescence; inactive = total fluorescence flat and polarisation flat or rising; no compound was filed as active; the % refers to the polarisation; negative = inhibition;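 note: % of control where 0% means no effect; inhibitors lower the polarisation; unlabelled MLL peptide was the positive control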
TRPV1 PAM: HTS Assay for Compounds that Act as Potentiators of the Vanilloid Receptor 1. TRPV1-expressing cells, Fluo-8 calcium influx, capsaicin EC20 potentiation; host cell line not named in the record; control for the full effect not named in the record. potentiation, % at 8.33 µM. actives 0.02% (n = 320,000). AID 540277, 2011; active means potentiation above 80%; inconclusive means 30% to 80%; inactive means below 30%; note: 0% is about no effect
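TRPV1-expressing cells were cultured overnight at 35.5C and loaded with Fluo-8 calcium dye for 40 to 90 min at room temperature. After a 10 s baseline, compound was added and calcium influx was read kinetically for 3 min (ex 480/em 520 nm).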
The depositor's hits bear a star; u = inconclusive; x = no result given; & = joins results of further samples; [ ] = another dose, or the depositor's remark.

SMILES | gsp agonist | gsp antagonist | Sfp inh | ClpP mod | D2 PAM | Menin-MLL FL inh | TRPV1 PAM
CCOC(=O)C1CCN(C(=O)c2ccc(SC)cc2OC)CC1 | -2% | 30% | 15% | 0.3% | -2 | 1.5 | 0
C[C@H](CO)N1C[C@H](C)[C@@H](CN(C)S(=O)(=O)c2ccc(F)cc2)Oc2ccc(NC(=O)C3CCCCC3)cc2C1=O | -36%[inhibitor] | 2% | x | 1.1% | -4 | x | x
CC(=O)c1ccc2noc(-c3cccc(F)c3)c2c1 | 0%[15.4 µM] | -27% | -1% | 0.6% | u | -5.6 | 23
CC(=O)Nc1ccc2c(c1)C(=Nc1ccccc1)c1ccccc1-2 | 1% | -4% | x | x | -12 | x | x
Cc1nn(-c2ncc(C(F)(F)F)cc2Cl)c(=O)n1-c1cccc(Cl)c1 | -7% | 2% | 5% | -1.5% | 11 | -2.4 | 9
CCN1C(=O)C(CC(=O)Nc2ccccc2)N(Cc2ccccn2)C1=S (stereo unspecified) | -6% | 3% | -1% | x | 11 | 0.3 | -15
Cc1cc(OC(=O)N2CCOCC2)cc(C)c1Cl | -10% | -9% | 15% | 0.7% | -5 | 1.3 | -28
Cc1ccc[n+](CC(=O)Nc2cccc([N+](=O)[O-])c2)c1 | 5% | 6% | 20% | -0.5% | -14 | -1.6 | 4
Cc1cccc2sc(N(CCCN(C)C)C(=O)c3ccc(C(=O)c4ccccc4)cc3)nc12 | 5% | 2% | 79µM* | -1.7% | -36 | x | -30
COc1ccc(CCNC(=O)Cn2nnc(-c3cccs3)n2)cc1OC | -23% | 3% | 22% | 1.0% | -7 | 3.9 | 17
CCOc1ccc(OCC)c(S(=O)(=O)NNC(=O)c2c(C)nc3ccccn23)c1 | 18% | 12% | 8% | -1.5% | -7 | 2.6 | -16
CC(C)(C)N(Cc1ccccc1)C(=O)c1ccc2c(c1)OCCO2 | -6% | 6% | 4% | -0.6% | -10 | 2.6 | -10
N#Cc1cccc(NC(=O)COC(=O)CCc2ccc(S(=O)(=O)N3CCOCC3)cc2)c1 | -29% | -1% | x | -0.7% | 3 | x | 10
COc1cc(CCNC2=CC(=O)c3ncccc3C2=O)ccc1O | 2% | -10% | x | 0.8% | 21 | x | x
Nc1cccnc1Oc1ccc(F)cc1F | -8%[15.4 µM] | 8% | 14% | 0.0% | 3 | 6.8 | 0
O=C1C(=NO)CC(c2ccccc2)N1c1ccccc1 (stereo unspecified) | -3% | -6% | x | -1.2% | -14 | x | x
COc1ccc(NS(=O)(=O)c2cccc(NC(=O)C3=NN(c4ccccc4)C(=O)CC3)c2)cc1 | 4% | u | 3% | -3.3% | -4 | -4.0 | 4
CS(=O)(=O)N1CC(C(=O)NC2CCCC2)Oc2ccc(Cl)cc21 (stereo unspecified) | 16% | -8% | 3% | 1.7% | -8 | 0.8 | -2
COc1cccc(CN2CCN(c3nc4nonc4nc3N3CCCCC3)CC2=O)c1 | 26% | -13% | 4% | -1.2% | 2 | 1.9 | -6
CN(Cc1cc2cc(F)ccc2[nH]1)Cc1nc(-c2cnccn2)no1 | 0% | 3% | 6% | x | 0 | -0.1 | 1
CCCN(C(=O)c1c(-c2ccccc2)noc1C)c1c(N)n(Cc2ccccc2)c(=O)[nH]c1=O | 20% | 3% | x | -3.6% | -2 | x | -7
O=C(CNC(=O)c1ccc2ccccc2c1)Nc1ncccc1O | 19% | -4% | x | -3.4% | -2 | x | -13
Cc1ccc2c(CC(=O)N3CCN(S(=O)(=O)c4cccs4)CC3)coc2c1 | -47% | -2% | -12% | -0.7% | 19 | 0.6 | -17
CCOc1ccc(S(=O)(=O)N(CC)CC(=O)NCc2ccncc2)cc1 | 2%[15.4 µM] | -3% | 6% | x | 0 | 0.6 | -15
CC1CCN(C(=O)c2ccc3c(c2)NC(=O)/C(=C/c2ccccc2)S3)CC1 | -10% | u | -17% | -1.8% | -12 | 7.3 | 2
Cc1ccc(S(=O)(=O)N2CCN(C(=O)c3ccc(N4CCCC4)c([N+](=O)[O-])c3)CC2)cc1 | -10%[15.4 µM] | -13% | -10% | -2.0% | -1 | x | 3
COc1ccc(NC(=O)Nc2ccccc2SC)c(OC)c1 | 3%[15.4 µM] | -7% | -6% | x | -23 | -1.0 | 10
C=CCN(C(=O)CSc1nc2[nH]ncc2c(=O)n1-c1ccccc1OC)c1ccccc1 | 14% | 10% | u | -1.5% | -10 | u | -7
Cn1c(SCC(=O)NCCc2ccccc2)ncc(C(=O)Nc2ccccc2)c1=O | 7%[15.4 µM] | -7% | x | -0.6% | 9 | x | 12
CSc1ccccc1OCc1cc(C(=O)N(C)CC2COCCO2)no1 (stereo unspecified) | 2% | 4% | 5% | -1.2% | 13 | x | -10
Cc1ccc(-c2nnc(-c3ccc4c(c3)OCO4)o2)cc1 | 17%[15.4 µM] | 4% | 10% | x | -10 | 2.7 | -11
CCCS(=O)(=O)Nc1ccc(Nc2c3ccccc3nc3ccccc23)c(OC)c1 | 1% | u | x | -29% | -33 | x | x
CSc1ccc(CN2C(=O)NC3(CCCCCC3)C2=O)cc1 | -5%[15.4 µM] | 1% | 8% | -6.5% | 1 | -3.1 | -7
CCCCCCn1c(=O)n2n(c1=O)[C@@H]1CN(S(=O)(=O)c3ccc(C)cc3)C[C@]1(O)[C@@H](OC(=O)Nc1cccs1)C2 | 1% | x | x | -3.8% | -1 | x | x
O=C(Cc1ccc(Cl)cc1)Nc1ccc(NC(=O)c2ccccc2)cc1 | -23% | 9% | u | u | -4 | -0.8 | -12
CCOc1ccc(S(=O)(=O)NCCC(=O)OCC(=O)N2CC(=O)Nc3ccccc32)cc1 | 7% | -1% | 21% | 0.2% | -4 | -4.3 | -7
CNC(=S)N(C)c1ccccc1 | -24% | 2% | 6% | 1.3% | -15 | 4.0 | 4
COc1ccccc1C1CCN(c2ccc(CO)cc2[N+](=O)[O-])CC1 | 15% | -6% | 2% | x | -6 | 0.2 | -6
O=C(COc1ccccc1)Nc1nnc(S(=O)(=O)N2CCCCCC2)s1 | 18% | 1% | 11% | -6.4%&0.2% | 1 | -0.1 | 22
NC1=NS(=O)(=O)NC1c1ccc(F)cc1 (stereo unspecified) | -11% | 9% | 4% | x | -2 | 1.9 | 5
CCc1cccc(C)c1NC(=O)COC(=O)Cc1ccccc1 | -36%[inhibitor] | x | x | -1.0% | -7 | x | x
CCOc1ccc(OCCCC(=O)NNC(=O)c2ccncc2)cc1 | -11% | -4% | x | 0.8% | -13 | x | 6
Cc1c(S(=O)(=O)N2CCC(C)CC2)c(=O)n(C)c(=O)n1C | 23%[15.4 µM] | 4% | x | x | -2 | x | 6
CCc1noc(C)c1C(=O)Nc1nc2c(F)cc(F)cc2s1 | u | u | x | -4.6% | -1 | x | -6
COc1cc(OC)nc(Oc2ccccc2/C=N/O)n1 | -5% | 7% | x | -1.3% | -14 | x | x
COCCN(C(=S)Nc1ccc(C)c(C)c1)C(C)c1ccco1 (stereo unspecified) | 7% | -6% | 8% | -0.6% | -6 | -0.4 | 0
CC(C)c1ccc(/C=N\NC(=O)c2ccc(Cn3cccn3)o2)cc1 | 2% | 7% | 8% | -1.9% | -11 | 1.9 | 8
O=C(N/N=C/c1ccc2c(c1)OCO2)C(O)c1ccccc1 (stereo unspecified) | 13% | 5% | -6% | -5.7% | -17 | 6.1 | -4
COc1cc(C=O)c(-c2c(C=O)cc(OC)c3c2OCO3)c2c1OCO2 | 11% | -15% | 5% | 3.3% | -18 | -1.6 | 8
CC(=O)N1CCc2cc(S(=O)(=O)CCC(=O)Nc3c(C)n(C)n(-c4ccccc4)c3=O)ccc21 | 7% | 16% | 17% | -0.7% | -4 | 4.8 | x

Carrying on:
SMILES | gsp agonist | gsp antagonist | Sfp inh | ClpP mod | D2 PAM | Menin-MLL FL inh | TRPV1 PAM
Cc1ccc2nc3ccc(N4CCCCCCC4)nn3c(=O)c2c1 | 6% | 20% | 5% | 10% | -5 | 1.8 | -5
Nc1ccc(S(=O)(=O)Nc2ccc(S(N)(=O)=O)cc2)cc1 | -12% | 5% | 6% | -1.4% | -12 | 3.1 | 2
CCOC(=O)c1[nH]cnc1C(=O)N1CCN(C(=O)OC(C)(C)C)CC1 | u | 7% | x | -2.3% | -8 | x | 4
CN(C)S(=O)(=O)c1cc(NC(=O)COC(=O)C2CSC3(C)CCC(=O)N23)ccc1Cl (stereo unspecified) | -5% | -4% | 14% | -6.4% | -1 | 0.9 | 12
O=C(CSc1n[nH]c(=O)[nH]c1=O)Nc1c(Cl)cc(Cl)cc1Cl | -12% | 17% | x | 0.9% | -3 | x | x
C=C/C(C)=C/C[C@H]1C(=C)CCC2[C@](C)(C(=O)O)CCC[C@@]21C (stereo partly specified) | x | -3% | x | -3.5% | -25 | x | 11
CCCCc1c(O)nc(SCCN(C)C)n(-c2ccccc2)c1=O | 10% | 3% | -3% | -0.2% | -3 | 1.9 | 1
CC(C)(C)c1nnc(NC(=O)c2cc(-c3ccccc3)nc3ccccc23)s1 | u | -9% | 20µM* | -5.8% | 10 | 2.3 | -3
COc1ccccc1S(=O)(=O)Cc1ccc(C(=O)NCc2cccs2)o1 | -30%[inhibitor] | -7% | -7% | -1.4% | -5 | 4.0 | 13
CC(O)c1n(C)c(Cl)c[n+]1C (stereo unspecified) | 2%[15.4 µM] | 13% | 10% | -0.4% | -1 | -1.9 | 26
